Screening data from PubChem BioAssay.
Prx2 Sm inh – blocks S. mansoni peroxiredoxin 2 enzymatic activity | S. mansoni Prx2 activity coupled to TGR/GSH (TGR is thioredoxin glutathione reductase), NADPH fluorescence loss, qHTS; some inactives read as strong as hits | Potency, µM | 65,000 compounds, 0.07% hits | AID 448; active means full or partial inhibition curve with a strong effect at the top dose; inconclusive means weaker partial or single-point curve; inactive means no accepted curve; note: series up to 57 µM; many of its hits are not listed in these tables
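Prx2 activity was followed as the loss of NADPH fluorescence (ex 365/em 450 nm), read every 30 sec for 8 min after H2O2 start. The enzyme mix (50 nM Prx2, 25 nM TGR, GSH, NADPH; pH 7.4 phosphate buffer) was incubated with compound for 15 min at room temperature first.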
Anthrax LT inh – anthrax lethal toxin internalization inhibition; 70,000 compounds, 0.67% hits; Cells, anthrax lethal toxin internalization, FRET ratio (460/530); Potency, µM (highest dose often 40 µM), for inactives: top-dose activity change, negative = inhibition, hits mostly inhibitors; AID 912; active = well fitted falling ratio curve with the 530 nm signal flat; inconclusive = other ratio curves, or a change in one channel alone; inactive = flat curves in the ratio and both channels; the % refers to the ratio; note: % is set by controls: 0 for no effect and ±100 for the full control effect; nearly all actives have a fitted effect of over 50% in size; tested in ME-180 cells; beta-lactamase reporter
Active calls of the source: *; u = inconclusive; x = not tested or not shown; [ ] = remark or other dose. Potency is the fitted concentration of half-maximal effect.

SMILES | Prx2 Sm inh | Anthrax LT inh
O=C(Nc1nccs1)c1ccc(S(=O)(=O)NCc2cccs2)cc1 | >57 | -20.8%
CCCOc1ccc(N2C(=O)CC(SCCN)C2=O)cc1 (stereo not given) | >57 | -0.1%
Cc1cccc(Nc2nc3c(c(=O)n(C)c(=O)n3C)n2CC(O)CO)c1 (stereo not given) | >57 | 9.4%
CC#CC(C)C(OCOC)C(CC(C)Cc1cc(Br)cc(OCc2ccccc2)c1OC)OC (stereo not given) | x | -15.8%[8 µM]
c1ccc(N2CCN(CCCOc3ccc4c(c3)OCO4)CC2)cc1 | >57 | u
OCCBr | x | -5.2%
O=C(NCC(c1cccnc1)N1CCN(c2ccc(F)cc2)CC1)c1ccc2c(c1)OCO2 (stereo not given) | >57 | -9.4%
COC(=O)c1nc2n(n1)C(c1cc(OC)ccc1OC)C(C(=O)OC1CCCCC1)=C(C)N2 (stereo not given) | >57 | 0.3%
COc1cccc(-n2c(SCC(N)=O)nc3c([nH]c4ccccc43)c2=O)c1 | >57 | 13.8%
CC1(C)CC(=O)C2=C(C1)N(Cc1ccco1)C(=O)NC2(C(F)(F)F)C(F)(F)F | >57 | -2.1%
O=C(Cn1cnc2c(oc3ccccc32)c1=O)NCCc1ccccc1 | >57 | x
Cc1cccc(Nc2ncc3c(n2)CC(c2ccco2)CC3=O)c1 (stereo not given) | >57 | u

The closing two compounds of the section above open the next one.
SMILES | Prx2 Sm inh | Anthrax LT inh
O=C(Cn1cnc2c(oc3ccccc32)c1=O)NCCc1ccccc1 | >57 | x
Cc1cccc(Nc2ncc3c(n2)CC(c2ccco2)CC3=O)c1 (stereo not given) | >57 | u
COc1ccccc1-n1cc(C(=O)NCC(=O)N2CCN(c3ccccc3)CC2)c2ccccc2c1=O | >57 | 3.7%
C=CCOc1ccc(CNc2nn[nH]n2)cc1 | >57 | -16.3%
Cn1c(=O)oc2cc(S(=O)(=O)NCCN3CCc4ccccc4C3)ccc21 | >57 | 5.9%
CCC(CC)NCc1ccc(OC)cc1OC | >57 | x
Cc1ccc2c(c1)c1c(n2CC(O)Cn2c(C)nc3ccccc32)C(=O)CCC1 (stereo not given) | >57 | u
CCOC(=O)c1ccc(CNC(=O)Cn2nnc(-c3ccc(C)cc3)n2)o1 | >57 | 11.3%
COc1ccc(OC)c(CN2CCN(C(=O)COc3cccc(C)c3)CC2)c1 | >57 | 7.3%
C=CCNC(=O)c1ccc(C)c(Br)c1 | >57 | -8.5%
Cc1n[nH]c(C)c1N1C(=O)c2cccc3c(N4CCCCCC4)ccc(c23)C1=O | x | u
COc1ccccc1CNC(=O)C1CCN(S(=O)(=O)N2CCCCC2)CC1 | >57 | 0.1%
CCc1c(C(=O)NCc2cnn(C)c2)csc1C | >57 | u
CCOCCn1c(N2CCN(c3ccc(OC)cc3)CC2)nc2c1c(=O)[nH]c(=O)n2C | >57 | -5.2%
O=C(Nc1ccc(OC(=O)c2ccco2)cc1)c1ccco1 | >57 | -8.5%
Cc1sc(NC(=O)c2ccco2)c(C(c2cccnc2)N2CCN(c3ccc(F)cc3)CC2)c1C (stereo not given) | >57 | u
CCOC(=O)N/N=C1/C[C@@H](O)[C@@H](O)[C@@H]2[C@H]3C(=O)N(c4ccc(F)cc4F)C(=O)[C@@H]3CC[C@@H]12 | x | 6.8%[8 µM]
C=CCn1c(NCCO)nc2c1c(=O)n(C)c(=O)n2C | >57 | -10.3%
COc1c2c(nc3ccccc13)OC(C(C)(O)COC(C)=O)C2 (stereo not given) | >57 | 3.1%
CCN1CCCC1Cn1cnc2c([nH]c3cccc(Cl)c32)c1=O (stereo not given) | x | -4.6%
CC(C)OC12Oc3ccccc3C=C1N1CCC2CC1 (stereo not given) | >57 | -17.1%
Cn1cccc1Cc1nnc(SCC(=O)NCc2ccco2)n1-c1ccc(F)cc1 | >57 | -17.4%
COCCNC(=O)CCSCc1ccccc1F | >57 | 2.5%
CCCCN1CCc2c([nH]c3c(C)cccc23)C1=O | >57 | -6.8%
CC1=C(C(=O)N2CCN(C(=O)c3ccco3)CC2)C2(CCC(C)CC2)OC1=O (stereo not given) | >57 | 0.5%
COc1ccc(S(=O)(=O)N2CCN(c3c(C)cccc3C)CC2)cc1OC | >57 | u

Molecules above that have an aryl methoxy group:
SMILES | Prx2 Sm inh | Anthrax LT inh
CC#CC(C)C(OCOC)C(CC(C)Cc1cc(Br)cc(OCc2ccccc2)c1OC)OC (stereo not given) | x | -15.8%[8 µM]
COC(=O)c1nc2n(n1)C(c1cc(OC)ccc1OC)C(C(=O)OC1CCCCC1)=C(C)N2 (stereo not given) | >57 | 0.3%
COc1cccc(-n2c(SCC(N)=O)nc3c([nH]c4ccccc43)c2=O)c1 | >57 | 13.8%
COc1ccccc1-n1cc(C(=O)NCC(=O)N2CCN(c3ccccc3)CC2)c2ccccc2c1=O | >57 | 3.7%
CCC(CC)NCc1ccc(OC)cc1OC | >57 | x
COc1ccc(OC)c(CN2CCN(C(=O)COc3cccc(C)c3)CC2)c1 | >57 | 7.3%
COc1ccccc1CNC(=O)C1CCN(S(=O)(=O)N2CCCCC2)CC1 | >57 | 0.1%
CCOCCn1c(N2CCN(c3ccc(OC)cc3)CC2)nc2c1c(=O)[nH]c(=O)n2C | >57 | -5.2%
COc1c2c(nc3ccccc13)OC(C(C)(O)COC(C)=O)C2 (stereo not given) | >57 | 3.1%
COc1ccc(S(=O)(=O)N2CCN(c3c(C)cccc3C)CC2)cc1OC | >57 | u

The list continues.
SMILES | Prx2 Sm inh | Anthrax LT inh
CCOC(=O)c1ccc(N=C2NC(=O)CS2)cc1 | >57 | 14.9%
COc1ccc2c(C)cc(SCC(=O)N3CCOCC3)nc2c1 | >57 | -1.7%
Cn1c(SCC(=O)NCc2cccs2)nnc1-c1ccc(S(=O)(=O)N2CCCC2)cc1 | >57 | -6.0%
O=C(COC(=O)c1cccnc1)Nc1cccc(Cl)c1 | >57 | 2.5%
COc1ccc(O[C@H]2C=C[C@@H](c3ccccc3)O[C@H]2COC(=O)CC/C(C)=N\OC[C@@H](C)[C@H](OCc2ccccc2)C(C)C)cc1 | x | 6.4%[8 µM]
Cn1c(=O)n(Cc2ccccc2)c(=O)c2c1nc1n2CCCN1C1CCCCC1 | >57 | -3.5%
Clc1ccc(Nc2ncnc3c2cnn3-c2ccccc2)cc1 | >57 | 10µM*
CCC(C)NC(=O)CS(=O)(=O)Cc1nc(-c2cccc(OC)c2)oc1C (stereo not given) | >57 | -5.1%
CNS(=O)(=O)c1cccc(C(=O)OCc2cc(Cl)cc3c2OCOC3)c1 | >57 | -34.8%
CCC(C)NC(=O)Cn1c(=O)n(-c2ccccc2)c(=O)c2ccc(C(=O)NCc3ccco3)cc21 (stereo not given) | >57 | 1.9%
COc1ccc(CC2S/C(=C(\C#N)C(=O)NCc3ccco3)N(c3ccc(C)cc3)C2=O)cc1 (stereo not given) | >57 | 14.7%
COc1ccc(Oc2ncc3nc(C)c(=O)n(C[C@H]4CCCO4)c3n2)cc1 | >57 | u
Cc1ccc(C)c(/C(O)=C2\C(=O)C(=O)N(CCCN(C)C)C2c2cccnc2)c1 (stereo not given) | >57 | -0.8%
CCOc1ccccc1N(CC(=O)Nc1ccccc1C(=O)O)S(C)(=O)=O | >57 | 1.8%
O=C(CSc1nnc(CCCO)n1-c1ccccc1)NCCc1ccccc1 | >57 | u
Cc1ccc2cc(CN(Cc3ccco3)S(=O)(=O)c3c(C)ccc4nsnc34)c(=O)[nH]c2c1 | >57 | u
COc1cccc(-n2c(SCC(=O)N3CCCC3)nc3c([nH]c4ccccc43)c2=O)c1 | >57 | -1.4%
CCOc1ccc(OCC)c(NC(=O)CN(C)S(=O)(=O)c2cnc[nH]2)c1 | >57 | -4.4%
CSc1nc2nc3c(c(=O)n2[nH]1)CN(Cc1ccccc1)CC3 | >57 | 4.0%
COC(=O)[C@@]1(Cc2ccccc2)[C@H]2c3cc(C(=O)N(C)C)n(C)c3C[C@H]2CN1C(=O)c1ccccc1 | >57 | u
Cc1cccc(S(=O)(=O)C(C#N)c2nc3ccccc3nc2N2CC(C)OC(C)C2)c1 (stereo not given) | >57 | u
COCCn1c(SCC(=O)N(C(C)C)C(C)C)nnc1-c1cc2ccccc2cc1O | >57 | -7.2%
CO[C@@H]1/C=C\CC(=O)N2CCC[C@@H]2C(=O)OC[C@@H](C)C(=O)OC[C@H]1C | x | 1.0%[8 µM]
COc1ccc(C(=O)c2cnc(C(C)C)n2C)cc1 | x | -7.2%
O=c1ccc(=O)[nH][nH]1 | x | u
COc1ccc(C(C)C)cc1S(=O)(=O)NCc1ccccn1 | >57 | -3.9%
CCOC(=O)N1CCC(NC(=O)CN2C(=O)CSc3nc(C)cc(C)c32)CC1 | >57 | 3.1%
CC(NC(=O)c1ccncc1)C(c1cccs1)N1CCOCC1 (stereo not given) | >57 | u
CCOc1ccccc1NC1c2ccccc2C(=O)N1c1cccnc1 (stereo not given) | >57 | 16.0%
Cc1cc(C(=O)Nc2cccc(C(=O)O)c2)oc1C | >57 | 1.0%
CC1CCN(C(=O)Cc2nn(C)c(=O)c3ccccc23)CC1 | >57 | 2.9%
Cc1onc(-c2ccccc2Cl)c1C(=O)NCc1nc(-c2ccccc2)no1 | >57 | -21.8%
CCC(C)c1ccccc1NC(=O)c1cccnc1 (stereo not given) | >57 | x
CC1(C)NC(=O)N(c2ccccc2Cl)C1(C)NO (stereo not given) | >57 | -11.4%
COc1ccccc1NC(=O)C1C2CCCCC21 (stereo not given) | >57 | -3.2%
CNC(=O)C1CC(=O)N(c2ccc(C)cc2)C1 (stereo not given) | >57 | 8.2%
Cc1ccc2c(c1)NC(=O)C(CC(=O)NCCCN1CCN(c3cc(Cl)ccc3C)CC1)O2 (stereo not given) | >57 | u
Cc1ccc(C(=O)Nc2c(C(=O)NCc3ccco3)cnn2-c2ccccc2)cc1 | >57 | 5.0%
CC(C)n1cnc2c(C(=O)N[C@H]3CN4CCC3CC4)cc(Cl)cc21 | >57 | u
CC(C)(C)OC(=O)N1CCNc2ccccc2C1 | >57 | 3.2%
CC(Oc1ccc(Br)cc1)C(=O)N1CCc2ccccc21 (stereo not given) | >57 | -4.2%
O=C(CNCC1CCCO1)Nc1ccccc1N1CCOCC1 (stereo not given) | >57 | 1.2%
CC(C)(C)c1cc(NC(=O)COC(=O)C2CC2)n(-c2ccccc2)n1 | >57 | 14.7%
COCCN1C(=O)c2ccccc2C(C(=O)NCc2ccco2)C1c1c[nH]c2ccccc12 (stereo not given) | >57 | 6.7%
COc1cccc(C(=O)OCn2nnc3ccccc3c2=O)c1OC | >57 | 12.5%
CCn1c(O)c(C=NCCN2CCOCC2)sc1=S | >57 | 13.3%
CC(C)CNC(=O)c1cc(-c2ccc(Br)cc2)on1 | >57 | -5.9%
COc1ccc(N)c(C)c1 | x | 1.7%
Cc1nc2nc(-c3cccs3)cn2nc1C | >57 | u
CC(=O)Nc1nc(COc2ccccc2)cs1 | >57 | x
O=c1cc[nH]c2cccc(Cc3ccccc3)c12 | >57 | -1.1%
O=C(Cc1c(O)c2ccccc2[nH]c1=O)OC1CCCCC1 | x | -3.5%
CCOc1ccccc1NS(=O)(=O)c1c(C)noc1C | >57 | -15.3%
CCCCn1c(=S)[nH]c2ncccc2c1=O | >57 | 20.6%
CCOC(=O)N1CCN(C(=O)c2ccc(NC(=O)c3ccc(C)cc3)cc2)CC1 | >57 | u
Cc1ccc(SCC(=O)N2CCCC2)cc1 | x | 15.5%
CCOC(=O)C1=C(C)NC(C)=C(C(=O)OCC)C1c1nc2ccccc2[nH]1 | x | u
O=C(C[N+]1(c2ccccc2)CCOCC1)c1ccccc1 | >57 | u
O=C(Cc1cccs1)Nc1nc(-c2ccccc2)cs1 | >57 | u
COc1cc(NC(=O)Cc2ccc(Cl)cc2)ccc1NC(=O)c1ccco1 | >57 | -5.3%
The results go on:
SMILES | Prx2 Sm inh | Anthrax LT inh
Cc1ccc(C(C(=O)NCc2ccco2)N(CC2CCCO2)C(=O)Cn2nnc3ccccc32)cc1 (stereo not given) | >57 | 0.1%
c1ccc(-n2ncc3c2ncn2cnnc32)cc1 | >57 | 2.2%
CCC/C(O)=C1\C(=O)CC(C)(C)CC1=Nc1ccccc1OC | x | -7.0%
CN1C(=O)C2(NCCc3c2[nH]c2ccccc32)c2ccccc21 (stereo not given) | >57 | x
CCCCC/C=C\C/C=C\C/C=C\C/C=C\CCCC(=O)NCC(=O)O | >57 | 6.1%
Cc1ccc(O)c(C(CC(=O)N2CCCC2)c2ccccc2)c1 (stereo not given) | x | 5.3%
O=C(NCCc1ccccc1)c1noc2c1CCCCC2 | >57 | -2.9%
NC(=O)C1CCN(c2ncnc3c(-c4ccccc4)nsc23)CC1 | >57 | -5.4%
Cc1cc(C)nc(NC(=O)c2cccc(Cl)c2)n1 | x | -8.0%
COc1ccc(OC)c(S(=O)(=O)Nc2ccc(CC(=O)O)cc2)c1 | >57 | -1.5%
O=C(O)c1sccc1S(=O)(=O)c1ccccc1 | >57 | u
COc1ccc(C(=O)N2CCC3(CCCN(CC(C)C)C3)CC2)cc1 | >57 | u
c1ccc2c(NCCN3CCOCC3)nc(-c3ccoc3)nc2c1 | >57 | u
Cc1ccc2[nH]c(=O)c(CN(Cc3cccnc3)C(=O)c3ccncc3)cc2c1 | >57 | -11.2%
CCCCC(=O)Nc1ccc(NC(=O)c2ccccc2OC)cn1 | >57 | 1.5%
CCOC(=O)c1nnc2cc(-c3ccc(Br)cc3)nn2c1C | >57 | u
COC(=O)c1ccc(N2CCOCC2)c(NC(=O)Nc2cccc(OC)c2)c1 | >57 | 6.6%

The list is partial; rates above refer to the full screens.
